Source: PubChem
PrP UTR inh = inhibition of PrP 5' UTR reporter expression. inhibition, % (test concentration not listed). hit rate 0.35% among 340,000. cell-based PrP 5' UTR mRNA reporter, plate reader;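 active = every replicate at 50% or more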;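 note: 0 = median of the neutral control wells; tested in H4 reporter cells; numbers are from one replicate; inactives centre near -14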
Sa ugtP lethal = growth inhibition of S. aureus ugtP deletion strain; S. aureus RN4220 ugtP deletion, OD600 growth, 16 h; some inactives read as strong as hits; growth inhibition, % (no concentration beside the values); hit rate 0.54% among 330,000; AID 1259309;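 active = z-score under -3 and OD600 up to 0.15 on both plates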;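 note: plate controls were untreated wells for no effect and antibiotic for full effect; wells of about 80 µL received 100 nL stock; the first replicate is given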
Mtb hypoxia rep = reduces hypoxia-regulated biosensor signal in M. tuberculosis. M. tuberculosis hypoxia-regulated fluorescent reporter, fluorescence. fluorescence inhibition, % (no concentration beside the values). hit rate 0.1% among 300,000;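 active = 35 to 45% if threefold the growth effect, above 45% if 1.5-fold the growth effect; inactive = the rest, general growth blockers included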;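 note: wells of about 50 µL received 100 nL stock; 0% = vehicle wells and 100% = reference inhibitor wells; whole bacteria with a GFP reporter of the hypoxia response; strong numbers were not always called active; many hits fall short of the cut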
RN4220 kill = kills Staphylococcus aureus RN4220; S. aureus RN4220 growth, OD600, 16 h; inhibition, % (no concentration beside the values); hit rate 0.33% among 330,000; AID 1259311;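 active = z-score of -3 or lower and OD600 up to 0.18 on both plates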;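 note: plate controls were untreated cells for no effect and reference antibiotic for full effect; stock transfer was 100 nL into about 80 µL; one replicate is shown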
BJeLR lethal = BJeLR cell viability loss; BJeLR (HRASV12) viability, CellTiter-Glo ATP luminescence, 48 h; reference of the scale not given here; inhibition, % (concentration not given with the values); hit rate 0.17% among 300,000;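 active = replicate mean above 50%; inconclusive = above 50% but judged a plate artefact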;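 note: 50 nL library stock added to about 25 µL; numbers are from one replicate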
Autofluor counter = flagged as autofluorescent in microsphere protease counterscreen; compound autofluorescence counterscreen, microsphere flow cytometry; hits give high values; hit rate 3.1% among 360,000; fluorescence intensity (test concentration not listed);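 active = at least 3 SD above the mean of all compounds, about 16000 in these data; inconclusive = too few beads counted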;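 note: 100 nL of 1 mM stock went into each well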
Mtb hypoxia rep growth = further read-out of Mtb hypoxia rep, marked with its call; growth inhibition, %; measured here: M. tuberculosis growth (absorbance);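 0% = vehicle and 100% = reference antibiotic; read after six days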
* marks the source's active call; other numbers are inactive results; ? = inconclusive; . = no result given.

SMILES	PrP UTR inh	Sa ugtP lethal	Mtb hypoxia rep	Mtb hypoxia rep growth	RN4220 kill	BJeLR lethal	Autofluor counter
CC(C)C12CN3CC(C(C)C)(CN(C1)C3c1ccco1)C2=O (stereo not drawn)	-27	1	0	-2	-1.2	7	9160
Cn1c(O)c(C=Nc2ccc(Br)cc2)sc1=O	-113	3	19	9	5.6	0	4042
COc1cc(NC(=O)Nc2c(C)n(C)n(-c3ccccc3)c2=O)cc(OC)c1OC	-19	0	-2	3	0.2	-1	3893
Oc1ccc(C[C@@H]2CNCCN2CC2CCCCC2)cc1	-22	.	.	.	.	8	3076
CC(C)COc1ccc(-c2nnc(-c3ccncc3)o2)cc1	-24	0	8	9	8.3	12	17655*
Oc1ccc(Br)cc1CNc1cccc2cccnc12	-27	.	.	.	.	-15	3766
O=C(NC1CCCCC1)N1CCCc2ccccc21	-19	8	15	8	7.3	6	3257
COc1cccc(CNC(=O)CCn2c(=O)oc3ccccc32)c1	-38	7	-8	-11	-5.8	7	25239*
COc1ccc(/C=C2/C(=O)C(C)(C(C)C)CCC2C)cc1 (stereo not drawn)	-18	11	3	10	0.3	7	3439
CCN(CC)c1ccc(S(=O)(=O)N2CCCCC2)cc1NC(=O)CN1C(=O)NC2(CCCC2)C1=O	-40	3	15	5	11	-7	4503

In a second layout: four of the compounds above
Fields – PrP UTR inh	Sa ugtP lethal	Mtb hypoxia rep	Mtb hypoxia rep growth	RN4220 kill	BJeLR lethal	Autofluor counter
CC(C)COc1ccc(-c2nnc(-c3ccncc3)o2)cc1
    -24	0	8	9	8.3	12	17655*
Oc1ccc(Br)cc1CNc1cccc2cccnc12
    -27	.	.	.	.	-15	3766
O=C(NC1CCCCC1)N1CCCc2ccccc21
    -19	8	15	8	7.3	6	3257
COc1cccc(CNC(=O)CCn2c(=O)oc3ccccc32)c1
    -38	7	-8	-11	-5.8	7	25239*

Next part
SMILES	PrP UTR inh	Sa ugtP lethal	Mtb hypoxia rep	Mtb hypoxia rep growth	RN4220 kill	BJeLR lethal	Autofluor counter
CCOCCCN1C(=O)C(=O)N(CC(=O)N2c3ccccc3NC(=O)CC2C)C1=O (stereo not drawn)	-12	3	-4	8	2.3	.	3671
Cn1c(-c2sc3cc(C(F)(F)F)cnc3c2-c2cccs2)n[nH]c1=S	-15	-2	-6	-1	-10	-7	4692
O=c1[nH]c2ccc([N+](=O)[O-])cc2nc1/C=C(\O)c1ccccc1	-62	.	.	.	.	2	4498
COC(=O)C1=C(C)NC(=O)NC1c1ccc(-c2ccc(F)cc2)o1 (stereo not drawn)	-46	-5	4	10	2.2	-17	4152
CC(C)(C)c1nnc(NC(=O)CCS(=O)(=O)c2ccccc2)s1	-10	10	14	17	4.2	12	3540
O=C(NCCCCNC(=O)c1ccc(Br)s1)c1ccc(Br)s1	-15	6	-2	-3	3.0	9	20047*
CN(C)S(=O)(=O)Nc1cccc(Br)c1	-15	10	3	16	4.0	-7	3729
O=C(O)Cn1c2c(c3ccccc31)CCCC2	-14	.	.	.	.	-4	5518
COC(=O)C(C)N1CCC(=O)c2ccccc2S1(=O)=O (stereo not drawn)	-19	5	0	-1	5.0	0	3598
O=C(O)c1ccc2c(c1)S(=O)(=O)c1ccccc1C2=O	-14	5	5	-4	9.0	-1	3393
COc1ccc(C(=O)/C=C/Nc2c(C)n(C)n(-c3ccccc3)c2=O)c(OC)c1	-11	-8	-14	7	0.6	0	4484
Cc1cccn2c(=O)c(C=O)c(N3CCC4(CC3)OCCO4)nc12	.	11	5	-1	2.3	-7	3492
O=C(NC1CCS(=O)(=O)C1)c1cccnc1 (stereo not drawn)	.	-8	3	12	-2.7	-6	.
CC(C)c1cccc(C(C)C)c1NC(=O)c1ccccc1	-16	3	-7	3	6.7	10	4236
CC(NC(=S)Nc1ccccc1C(F)(F)F)C1CC2CCC1C2 (stereo not drawn)	1	-16	-13	7	-1.7	0	3115
CNCCCOc1cccc(Oc2ccccc2)c1	-33	7	22	8	2.7	-4	4054
O=S(=O)(N1CCOCC1)N1CCN(c2ccc(F)cc2)CC1	-11	-1	1	2	-0.5	-1	8048
O=C(c1cccnc1)N(c1cc2sc(=O)oc2c2ccccc12)S(=O)(=O)c1ccccc1	-1	-1	5	14	10.0	-4	2761
CC(C)Cn1c(SCC(=O)N(C)C2CCS(=O)(=O)C2)nc2cc(Cl)ccc2c1=O (stereo not drawn)	-3	1	3	2	-0.5	-1	?
COc1ccc(/C=C2/CCOC2=O)cc1	-16	-8	.	.	3.7	4	2686
O=C(COc1ccccc1)Nc1nnc(-c2ccc(Cl)s2)o1	-52	-4	-1	1	-1.9	-6	5499
CCOC(=O)c1c(NC(=O)c2c(N)n(CCCOC)c3nc4ccccc4nc23)sc2c1CCCC2	-7	26	-5	5	-9.0	-6	4496
Cc1cc(NC(=O)CSc2nccn2-c2ccc(F)cc2)no1	-6	-5	.	.	-3.0	8	2484
O=C(Cn1nc(C(=O)O)c2ccccc2c1=O)Nc1ccc(Br)cc1	-9	14	-5	-4	4.7	-8	2942
COc1ccc(-n2nnnc2SCC(=O)NCc2ccco2)cc1OC	-16	12	1	-2	8.1	-8	7162
Cc1ccc(CN2[C@@H]3c4ccccc4C[C@@H]3OCCS2(=O)=O)cc1	6	.	.	.	.	4	4121
CC(C)CC(=O)NC(NC(=O)CC(C)C)c1cccc([N+](=O)[O-])c1	-7	.	.	.	.	-3	2304
COc1ccc(-c2c(C(C)=O)c(C)nc3sc4c(=O)[nH]nnc4c23)cc1	-7	8	7	2	4.3	-4	1965
Cc1ccccc1CSCC(=O)NC(=O)NCc1ccco1	0	0	13	5	4.0	2	4392
O=C(CSc1nnc(Cc2cccs2)n1C1CC1)NC1CCS(=O)(=O)C1 (stereo not drawn)	-25	-6	-4	-1	-3.8	.	5486
COC(=O)C1CN(C(=O)COc2ccc(Cl)cc2C)c2ccccc2O1 (stereo not drawn)	-14	1	8	3	3.9	1	3015
CCOc1ccc2[nH]c(=O)c(CN(CCO)C(=O)c3ccc(OC)c(OC)c3)cc2c1	0	2	3	7	-0.6	-15	11259
O=C(Nc1nc(-c2ccc(Cl)cc2)cs1)C1CCCO1 (stereo not drawn)	-48	75	10	8	0.3	3	2343
O=C1NCCN(C(=O)CCc2nnc(-c3ccsc3)o2)C1c1ccc(F)cc1 (stereo not drawn)	-9	8	-6	-2	4.9	4	3636
CC1([N+](=O)[O-])COC(c2cccc3ccccc23)OC1 (stereo not drawn)	.	-5	-3	8	0.1	.	3625
COc1ccc(N2CCN(C(CNC(=O)C(=O)NCc3ccncc3)c3ccco3)CC2)cc1 (stereo not drawn)	-1	-10	-3	-2	-0.1	13	6076
COc1ccc(CCNCC(=O)Nc2ccccc2C(F)(F)F)cc1	-27	0	4	5	5.5	-2	4958
O=C(NC1CCN(Cc2ccccc2)CC1)c1cc(Br)c(Br)[nH]1	-3	4	9	16	0.8	8	4451
COc1ccc(N2CCN(C(=O)C3CCCO3)CC2)cc1 (stereo not drawn)	-2	8	0	-1	2.2	-2	16086
O=C(NC1CCCC1)C(c1ccsc1)N(Cc1ccco1)C(=O)Cc1cccs1 (stereo not drawn)	-13	2	.	.	-1.9	-3	5719
O=C(CSc1nnc(-c2cccnc2)s1)Nc1ccccc1	-15	.	.	.	.	-8	3208
CCCn1c(SCC(=O)NCC)nc2sc3c(c2c1=O)CCC3	-13	15	3	-4	3.2	-5	3484
Cc1ccccc1Nc1nc(N)nc(CSc2nnc3ccccn23)n1	-22	1	11	0	3.1	1	5864
CCOc1cccc2sc(NN)nc12	0	7	5	-5	2.2	.	4223
O=C(NN=C/C=C/c1ccccc1)c1cc(C2CC2)[nH]n1	.	9	-2	-1	3.7	.	.
O=C(c1ncn(Cc2ccccc2)c1C(=O)N1CCc2ccccc2C1)N1CCc2ccccc2C1	-13	5	9	6	11	.	2703
CC(C)N1CCC(N2CCN(Cc3cccc4nonc34)CC2CCO)CC1 (stereo not drawn)	6	6	7	-1	1.0	5	4252
O=C(NNC(=O)c1csc(-c2cccnc2)n1)Nc1ccc(Cl)cc1	-13	5	1	6	-1.1	3	.
COc1ccccc1C(=O)NNC(=O)CCN1C(=O)/C(=C\c2ccccc2)SC1=S	-26	3	13	4	7.6	-16	4032
O=[N+]([O-])c1ccc(S(=O)(=O)CC2CSc3nc4ccccc4n32)cc1 (stereo not drawn)	1	.	.	.	.	10	1767

Further compounds.
SMILES	PrP UTR inh	Sa ugtP lethal	Mtb hypoxia rep	Mtb hypoxia rep growth	RN4220 kill	BJeLR lethal	Autofluor counter
Cc1ccc(S(=O)(=O)N2CCN(Cc3ccccc3C(F)(F)F)CC2)cc1	-7	39	.	.	-0.9	4	2110
CC1=CC(C)(C)N(C(=O)CN2C(=O)c3ccccc3C2=O)c2ccc(C)cc21	-18	-1	16	8	14	5	11668
C=CCOC(=O)C1=C(C)OC(N)=C(C#N)C1c1ccco1 (stereo not drawn)	-15	1	7	10	3.8	2	4404
Cc1ccc(NC(=O)c2ccccc2-c2cc(C)no2)cc1	-46	11	11	4	0.9	-10	2629
O=C(C1=C[C@@H](C2CCCCC2)C[C@@H](OCc2ccc(CO)cc2)O1)N1CCN(Cc2ccccc2)CC1	-4	.	.	.	.	-1	3557
O=C(Nc1ccon1)c1cc2c(s1)CCCCCC2	-75	-12	3	3	5.2	-19	16721*
Cc1nc2scc(-c3ccccc3)c2c(=O)n1N=C1C=CC(=O)C=C1	.	12	0	12	7.1	-2	.
COc1ccc(OCC#CCN2CC(C)OC(C)C2)cc1 (stereo not drawn)	-6	5	6	2	5.7	0	2647
CCn1c(SCC(=O)c2ccc(F)cc2)nnc1-c1ccoc1C	-21	2	.	.	2.5	-7	?
COCCCNC(=S)N1CCN(c2nc3ccccc3s2)CC1	-19	10	22	8	6.1	-13	5293
CCN(C(=O)CSc1nc2ccccc2c(=O)n1-c1cccc(C)c1)C1CCS(=O)(=O)C1 (stereo not drawn)	-13	4	-8	6	6.6	-11	4693
CC(C)(C)OC(=O)[C@H](Cc1ccccc1)NC(=O)c1nc[nH]c1C(=O)NCCCCCN	-15	.	.	.	.	-7	3070
CCOc1cccc2cc(C(N)=O)c(=N)oc12	-9	7	4	1	1.5	.	3854
Cc1cc(C(=O)NNS(=O)(=O)c2ccc(F)cc2)nn1C(C)(C)C	-12	8	3	9	4.2	-8	4114
Cc1cc(C)nc(NC(=O)Cc2ccc(Cl)cc2)c1	-4	3	10	1	3.5	-11	3807
Cc1cc(O)ccc1C1(c2ccc(O)cc2C)OC(=O)c2ccccc21	-21	24	.	.	-12	-4	2957
CC(=O)c1ccc(NC(=O)CSc2nnc(-c3ccncc3)n2C2CC2)cc1	-13	0	-4	9	2.1	.	3386
Cc1cccc(C(=O)Oc2ccc(C=NNC(=O)c3ccccc3O)cc2)c1	.	5	6	5	4.9	.	.
CC(=O)Nc1cccc(NC(=O)C(C)N2c3cccc4cccc(c34)S2(=O)=O)c1 (stereo not drawn)	-16	1	-10	-6	-5.0	1	6106
Cc1ccc(S(=O)(=O)NCC(C)NC(=O)CN2CCOCC2)cc1 (stereo not drawn)	-23	1	-1	4	2.1	-3	3706
C=CC[N+]1(CC#Cc2ccccc2)CCCC1	6	2	-3	5	2.7	6	4807
CCN(CC)S(=O)(=O)c1ccc(N2CCOCC2)c(NC(=O)COc2ccc(C#N)cc2)c1	-6	9	-5	-9	7.2	6	3834
COC(=O)C1=CN(c2ccc(Cl)cc2)C=C(C(=O)OC)C1c1ccc([N+](=O)[O-])cc1	-5	-9	1	1	-3.8	10	5239
Cc1ccc2c(c1)/C(=N/O)CCS2	-14	.	.	.	.	-6	3058
CCN(CC)S(=O)(=O)c1cccc(C(=O)NN2Cc3ccccc3C2=N)c1	0	6	-1	8	-1.6	-6	1970
COc1cc(C=C2NC(=O)N(Cc3ccccc3F)C2=O)cc(OC)c1O	.	-9	-20	-7	-9.8	.	.
C[C@H](CO)N1C[C@H](C)[C@@H](CN(C)C(=O)Nc2ccc3c(c2)OCO3)Oc2c(NC(=O)C3CC3)cccc2C1=O	13	5	-1	1	3.8	.	2813
